# Screens (PubChem)
# ClpP mod – qHTS Assay for Activators of ClpP; ATP-dependent Clp protease proteolytic subunit (Bacillus subtilis (strain 168)), P80244; purified B. subtilis ClpP, FRET peptide cleavage, 20 min; Potency, µM (highest dose often 57.5 µM), without a hit: at the top dose activity change, negative = active; 1.9% of 340,000 active; AID 651965, 2013; active = well fitted falling curve with a large enough effect; inconclusive = small, poorly fitted or top-dose-only effect; inactive = no such curve, though single readings can be large or run the other way; also: potency is read from the fitted curve at half-maximal effect; the source files actives as falling curves though it sought activators and does not explain the sign; nearly all actives have a fitted effect of over 65% in size; many hits overshoot -100%
# Target sequence (P80244 whole entry, looked up): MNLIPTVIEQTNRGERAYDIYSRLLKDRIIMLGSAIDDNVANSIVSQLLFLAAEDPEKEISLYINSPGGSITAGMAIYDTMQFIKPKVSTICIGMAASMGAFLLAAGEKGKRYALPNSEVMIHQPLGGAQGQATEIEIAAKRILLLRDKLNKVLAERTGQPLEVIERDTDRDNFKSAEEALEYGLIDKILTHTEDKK
#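 ClpP 10 microg/mL final, pH 8 Tris/KCl buffer with BSA, glycerol, Tween-20; compound pinned in; FRET-FV substrate; RT 20 min; Ex320/Em430; ΔFRET vs ADEP 5.8 microM, DMSO, no enzyme.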
# Menin-MLL FL inh – menin-MLL binding inhibition, fluorescein peptide; Fluorescence polarization, fluorescein-MLL peptide displacement from menin; FP activity change, % at 61.4 µM; 290,000 tested, under 10 active; AID 1766; inconclusive = falling polarisation curve, or a change in total fluorescence; inactive = total fluorescence flat and polarisation flat or rising; no compound was filed as active; the % refers to the polarisation; negative = inhibition;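 also: % of control where 0% means no effect; inhibitors lower the polarisation; unlabelled MLL peptide was the positive control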
# Active calls of the source: *; ? = inconclusive; · = not tested or not shown; [ ] = dose if it differs, or a comment. These rows are one share of the data (hit frequency here may not be typical).
SMILES,ClpP mod,Menin-MLL FL inh
CCn1c(CN2CCCCC2)nc2cc(NC(=O)c3cccc([N+](=O)[O-])c3)ccc21,-0.3%,·
COc1ccccc1N1CCN(c2ncc3c(n2)CCN(Cc2ccc(C)s2)C3)CC1,-12%,·
Cc1ccc(CNC(=O)C2CCCN(S(=O)(=O)c3ccc4c(c3)oc(=O)n4C)C2)cc1 (stereo unspecified),-1.8%,·
COc1ccccc1CNC(=O)CCCn1c(=O)c2ccccc2n(CC(=O)Nc2ccc(C)cc2Cl)c1=O,-12%,·
CCN(c1ccccc1)S(=O)(=O)c1nnc(NC(=O)C2CCCCC2)s1,-0.1%,·
COc1ccccc1CC(=O)Nc1ccc2nc(Nc3cccc(C(F)(F)F)c3)cc(C)c2c1,4.0%,·
CC(=O)N1CCc2c(sc3c2c(=O)n(Cc2ccccc2)c(=O)n3Cc2ccc(Cl)cc2)C1,1.1%,·
COCCNc1ccc2cc(S(=O)(=O)N3CCCCC3)ccc2n1,4.6%,·
CCc1cccc(C)c1NC(=O)C1CCN(c2nnc(C)c3c(C)n(-c4ccccc4)nc23)CC1,?,·
COc1ccc(-c2nn3c(-c4cc(-c5ccccc5)n[nH]4)nnc3s2)cc1,-12%,·
O=C(O)c1ccc2c(c1)ncn2-c1ccc(F)c(F)c1,-1.0%,·
COc1ccc(CCNC(=O)c2c(O)nc3c(C)cccn3c2=O)cc1,-22%,·
CCCCN(CC)CCCNC(=O)c1cc2c(=O)[nH]c3ccccc3c2n1C,4.0%,·
CCc1ccc(NC(=O)C2CCCN(c3nnc(C)c4c(C)n(-c5ccccc5)nc34)C2)cc1 (stereo unspecified),-10%,·
CCOC(=O)c1cc(C)n(CC2CCC(C(=O)Nc3ccccc3OC)CC2)c1C (stereo unspecified),-0.4%,·
COc1ccccc1CNC(=O)c1oc2ccc(S(=O)(=O)N3CCCCC3)cc2c1C,-7.6%,·
CCCn1c(NCc2ccc(N(CC)CC)cc2)nc2ccccc21,-4.5%,·
Cc1ccc(Cn2c(SCC(=O)NCc3ccccc3Cl)nc3ccsc3c2=O)cc1,2.4%,·
Cc1ccc(-n2ncc3c(N4CCN(CCO)CC4)ncnc32)cc1Cl,-5.9%,·
CCn1cc(C(=O)NC(C)c2ccccc2)c(=O)c2cc(S(=O)(=O)N3CCc4ccccc4C3)ccc21 (stereo unspecified),-2.8%,·
Cc1ccc(-c2cn3cccnc3n2)cc1NC(=O)Cc1ccccc1,4.6%,·
Cc1ccc(C)c(N(C)C(=O)Cc2c(C(=O)O)[nH]c3ccc(Cl)cc23)c1,-13%,·
O=C(NCC(c1cccs1)S(=O)(=O)c1cccs1)c1ccc(Cl)cc1 (stereo unspecified),-0.4%,·
COc1ccc(Nc2nnc(-c3ccc(C)c(S(=O)(=O)NCCO)c3)c3ccccc23)cc1C(N)=O,0.0%,·
C=C(C(=O)O)c1ccc2ccccc2c1,4.2%,·

# Another view of some results above:
> CCCn1c(NCc2ccc(N(CC)CC)cc2)nc2ccccc21
  ClpP mod: -4.5% | Menin-MLL FL inh: ·

> COc1ccc(Nc2nnc(-c3ccc(C)c(S(=O)(=O)NCCO)c3)c3ccccc23)cc1C(N)=O
  ClpP mod: 0.0% | Menin-MLL FL inh: ·

> CCn1cc(C(=O)NC(C)c2ccccc2)c(=O)c2cc(S(=O)(=O)N3CCc4ccccc4C3)ccc21 (stereo unspecified)
  ClpP mod: -2.8% | Menin-MLL FL inh: ·

> CCc1cccc(C)c1NC(=O)C1CCN(c2nnc(C)c3c(C)n(-c4ccccc4)nc23)CC1
  ClpP mod: ? | Menin-MLL FL inh: ·

# New compounds follow:
SMILES,ClpP mod,Menin-MLL FL inh
COc1ccccc1OCC(=O)Nc1nc2c(s1)CC(C)CC2 (stereo unspecified),-3.6%,·
COc1ccc(C2CC(=O)N(Cc3ccc(C)cc3)c3c2c(C)nn3-c2nc(C)cc(C)n2)c(OC)c1 (stereo unspecified),-0.9%,·
O=C(c1ccco1)N(Cc1cccs1)c1ccc(O)cc1,-3.1%,·
CCOC(=O)c1c(C)oc2ncnc(Nc3ccc(OCC)cc3)c12,-0.4%,·
COc1ccc(OC)c(NC(=O)C(Cc2ccccc2)NS(=O)(=O)c2ccc3c(c2)CCC(=O)N3)c1 (stereo unspecified),-0.3%,·
COc1ccc(CCNC(=O)CCCCCn2c(=O)[nH]c3cc(OC)c(OC)cc3c2=O)cc1OC,-9.5%,·
COc1ccc(Br)cc1CNC(=O)c1cc2ccccn2n1,-21%,·
COc1ccc(NC(=O)C2CCN(S(=O)(=O)c3ccc4[nH]c(=O)ccc4c3)CC2)c(OC)c1,0.6%,·
COc1ccc(NC(=O)Cn2c(=O)n(Cc3nc(C)no3)c(=O)c3cc4c(cc32)OCO4)cc1,-11%,·
Cn1c(C(=O)N2CCCC(C(=O)N3CCN(c4ccccc4)CC3)C2)cc2sccc21 (stereo unspecified),1.0%,·
COc1ccc(S(=O)(=O)N(CC(=O)Nc2cc(Cl)ccc2C)Cc2ccccc2)cc1OC,0.3%,·
Cc1ccc(C(=O)CC2(O)C(=O)N(CCc3ccccc3)c3ccc(Br)cc32)cc1 (stereo unspecified),-1.5%,·
CCc1ccc(CNCc2c(C(=O)O)n(Cc3ccc(C)cc3)c3cc(C)ccc23)cc1,?,·
Cn1c(Oc2ccc(F)cc2)nc2c1c(=O)n(Cc1ccccc1Cl)c(=O)n2C,-2.0%,·
Cc1c(C(=O)Nc2ccccc2Br)oc2ccc(S(=O)(=O)N3CCOCC3)cc12,?,·
CCCCNC(=O)C(CC)Sc1nc2ccccc2c(=O)n1CCc1ccc(OC)c(OC)c1 (stereo unspecified),-1.7%,·
Cc1ccccc1-c1noc(-c2cccnc2NCc2ccco2)n1,3.6%,·
Cc1ccc(C)c(C(=O)c2c(N)c(-c3nc(-c4ccc5c(c4)OCO5)cs3)c3ccccn23)c1,0.2%,·
COc1cccc(CNC(=O)C2CCN(C(=O)c3sccc3-n3cccc3)CC2)c1,-2.4%,·
COc1ccc(-c2nc(CN3CCC(C(=O)NCCCOC(C)C)CC3)c(C)o2)cc1OC,-15%,·
Cc1ccc(-c2nnn3c2nc(N2CCC(C)CC2)c2ccccc23)cc1,-3.7%,·
CC(=O)c1cccc(NC(=O)c2ccc(-n3c(C)nnc3C)cc2)c1,-2.0%,·
COc1ccc(S(=O)(=O)n2nc(C)c(S(=O)(=O)N3CCC(C)CC3)c2C)cc1C,-1.9%,·
CCOC(=O)C(C)NC(=O)c1c(C)oc2ncn(CC(C)C)c(=O)c12 (stereo unspecified),0.5%,·
CCCCn1c(CCCNC(=O)c2cccc(C)c2)nc2ccccc21,-5.7%,·

# Part of the list above in order of formula weight, highest first.
SMILES,ClpP mod,Menin-MLL FL inh
Cc1ccc(CNC(=O)C2CCCN(S(=O)(=O)c3ccc4c(c3)oc(=O)n4C)C2)cc1 (stereo unspecified),-1.8%,·
COc1ccc(Br)cc1CNC(=O)c1cc2ccccn2n1,-21%,·
COc1ccc(CCNC(=O)c2c(O)nc3c(C)cccn3c2=O)cc1,-22%,·

# Next entries.
SMILES,ClpP mod,Menin-MLL FL inh
COc1cc(C(=O)Nc2ccc3nn(-c4ccc(F)cc4)nc3c2)cc(OC)c1OC,4.1%,·
CCOC(=O)c1cccc(NC(=O)c2cc(-c3ccc(Cl)s3)nc3ccccc23)c1,?,·
Brc1ccc2c(c1)NC(c1cccnc1)=NC(c1ccccc1)=N2,-3.3%,·
COc1cccc(NC(=O)CC(C)S(=O)(=O)c2ccc3c(c2)NC(=O)CO3)c1 (stereo unspecified),-4.2%,·
CCOC(=O)N1CCC(NC(=O)c2c(C)nn(-c3cccc(C)c3)c2-n2cccc2)CC1,1.2%,·
O=C(Nc1cccc(-c2nc3ccccc3o2)c1)c1cccc2c(Cl)cccc12,-4.5%,·
CCC(Sc1nc2nccnc2c(=O)n1Cc1ccc(C)cc1)C(=O)NC1CCCCC1 (stereo unspecified),0.2%,·
COc1ccc(N2CCN(C(=O)c3sc4nc5n(c(=O)c4c3C)CCC5)CC2)cc1,2.4%,·
O=[N+]([O-])c1cccc(S(=O)(=O)N2CCN(c3nc(-c4cccs4)nc4ccccc34)CC2)c1,-1.7%,·
COc1ccc(Br)cc1CNC(=O)C1COc2ccccc2C1 (stereo unspecified),-3.6%,·
COc1ccc(-c2cc(C(F)F)n3ncc(C(=O)Nc4cc(OC)ccc4OC)c3n2)cc1,-2.8%,·
Cc1ccc(CN2CCC(CNC(=O)Nc3ccc(Cl)cc3)C2)cc1 (stereo unspecified),-9.4%,·
COc1ccccc1CNC(=O)c1cccc(NC(=O)N2CCSc3ncccc32)c1,?,·
CC(=O)c1ccc(N2CCN(C(=O)C3CCN(S(=O)(=O)c4c(C)noc4/C=C/c4ccc(C)cc4)CC3)CC2)cc1,-7.4%,·
O=S(=O)(NCc1nc2cccnc2n1Cc1ccccc1Cl)c1ccc2c(c1)CCCC2,-2.0%,·
COc1cccc(Cn2c(=O)n(-c3ccc(C)c(F)c3)c(=O)c3sc4ccccc4c32)c1,?,·
O=C(/C=C/c1ccco1)Nc1ccc(Cl)c(-c2nc3cc(Cl)ccc3o2)c1,?,·
COC(=O)C1=C(c2ccccc2)c2ccccc2S(=O)(=O)N1CC(=O)Nc1ccccc1C(F)(F)F,0.5%,·
CCc1cc2c(cc3c(=O)n(CC(=O)N4CCN(c5cccc(C)c5C)CC4)nc(CC)n32)s1,-4.4%,·
Cc1n[nH]c(C)c1S(=O)(=O)N(CC(=O)Nc1ccc(C(F)(F)F)cc1)c1ccc(C(C)C)cc1,3.0%,·
COc1ccc(NC(=O)C2Cc3ccccc3CN2S(=O)(=O)c2ccccc2)cc1OC (stereo unspecified),0.9%,·
COc1ccc(-c2nc(SCC(=O)NC3CCCC3)c(-c3ccccc3)[nH]2)cc1OC,-16%,·
COC(=O)c1cccc(NC(=O)N(C)CCc2c(C)nn(C)c2C)c1,-0.7%,·
CCCC12CN3CC(C)(CN(C1)C3c1cn(C)c3ccccc13)C2=O (stereo unspecified),-2.2%,·
Cc1cc(C)c(NC(=O)Cn2c(=O)n(CC3CCCO3)c(=O)c3ccccc32)c(C)c1 (stereo unspecified),-9.9%,·

# The results go on.
SMILES,ClpP mod,Menin-MLL FL inh
CCc1ccc(NC(=O)Cn2c(-c3cncs3)nc3ccccc32)cc1,?,·
CCOc1ccc(S(=O)(=O)NCCc2csc3nc(-c4ccc(F)cc4)nn23)cc1,1.2%,·
Cc1cc(C)cc(NC(=O)CSc2nc3c(oc4ccccc43)c(=O)n2-c2ccccc2F)c1,-12%,·
COc1ccc(N2CCN(C(=O)CSc3nc(-c4ccc(C(C)C)cc4)no3)CC2)cc1,0.2%,·
CCN(C(=O)C(=O)Nc1ccc2nc3n(c(=O)c2c1)CCCCC3)c1ccc(F)cc1,-2.8%,·
Cc1cccc(Cn2c(C)c(CNC3CCCCC3)c(C(=O)O)c2C)c1,-8.3%,·
CCC(=O)C1=C(c2ccccc2)N(C(=O)CC)n2c(nnc2-c2ccccc2)S1,0.3%,·
Cc1ccc(C(=O)Nc2ccc3nc(SCC(=O)N4CCc5ccccc54)sc3c2)cc1,?,·
Cc1nc2nc(NCc3ccc(Br)cc3)[nH]n2c(=O)c1Cc1ccccc1,9.5%,·
COc1ccccc1NC(=O)CN1C(=O)CCSc2ccccc21,1.0%,·
O=C(C[n+]1ccccc1Cl)c1ccc(Br)cc1,-8.1%,·
COc1cn(CC(=O)Nc2cccc(C)c2C)c(CN2CCCCC2)cc1=O,2.2%,·
COc1ccc2c(c1)NC(c1cccnc1)=NC(c1ccc(F)cc1)=N2,-0.4%,·
CCN(c1ccccc1)c1nnc(NC(=O)Nc2ccc(Br)cc2F)s1,1.3%,·
CCc1nn2c(=O)cc(COC(=O)c3cccc(NC(=O)c4ccccc4Cl)c3)nc2s1,-13%,·
COc1ccccc1CNC(=O)CCCn1c(=O)c2ccccc2n(Cc2ccc(F)cc2)c1=O,0.2%,·
CC(C)c1ccc(S(=O)(=O)c2nnn3c2nc(NCc2cccs2)c2sccc23)cc1,5.0%,·
Cn1c(=O)c2sccc2n2c(CCC(=O)NCc3ccccc3)nnc12,?,·
Cc1cccc(NC(=O)CCn2nc(C)c3c(C)n(-c4ccccc4)nc3c2=O)c1C,-2.5%,·
COc1ccc(C2CC(=O)c3c([nH]c(C(=O)OC4CCCCCC4)c3C)C2)cc1 (stereo unspecified),-1.7%,·
Cc1ccc2[nH]c(CSc3nnc(NC(=O)c4ccccc4F)s3)cc(=O)c2c1,1.8%,·
CC(C)Cn1cc(NC(=O)Nc2cccc(C(F)(F)F)c2)c2ccccc2c1=O,-10%,·
COC1=C(OC)C(=O)c2ccccc2C1=O,49%,2.7
Nc1c(S(=O)(=O)O)cc(Nc2ccc(Nc3nc(Cl)nc(Nc4ccc(S(=O)(=O)O)cc4)n3)c(S(=O)(=O)O)c2)c2c1C(=O)c1ccccc1C2=O,-5.4%,2.7
COc1ccc2c(c1)c(CC(=O)O)c(C)n2Cc1ccc(Cl)cc1,-18%,-3.9
NC(=O)c1cc[n+](CC2=C(C(=O)O)N3C(=O)[C@@H](NC(=O)[C@@H](c4ccccc4)S(=O)(=O)[O-])[C@H]3SC2)cc1,-13%[115 µM],-0.4

# A stretch taken from the entries so far, as a working copy:
SMILES,ClpP mod,Menin-MLL FL inh
COc1ccc2c(c1)c(CC(=O)O)c(C)n2Cc1ccc(Cl)cc1,-18%,-3.9
NC(=O)c1cc[n+](CC2=C(C(=O)O)N3C(=O)[C@@H](NC(=O)[C@@H](c4ccccc4)S(=O)(=O)[O-])[C@H]3SC2)cc1,-13%[115 µM],-0.4
